NS1 inh – blocks influenza NS1 protein function. actives 0.4% (n = 270,000). S. cerevisiae slowed by influenza A NS1, growth recovery by OD600. Potency, µM (titrated, usually from 46.1 µM), without a hit: at the highest dose activity, positive = more growth; also: actives are rising curves; nearly all actives have a fitted effect of over 50% in size
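S. cerevisiae expressing influenza A NS1, grown in glucose, washed, then diluted 1:100 into pH 6.0 -URA galactose medium with 23 nl compound. Growth recovery read as OD600; NS1-free strain serves as control.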
SARS PLP yeast – SARS-CoV PLP inhibition in yeast | S. cerevisiae expressing SARS-CoV PLpro, growth rescue; control for the full effect not named in the record | AID 485353 | Potency, µM (doses to about 32.9 µM), for inactives: at the top dose activity, positive = growth rescue | actives 0.19% (n = 330,000); also: 0% is about no effect; nearly all actives have a fitted effect of over 55% in size; growth read by luminescence after 48 h
* marks the source's active call; other numbers are inactive results; ? = inconclusive; [ ] = remark or other dose. Calls follow the shape of the dose curve; as a rule, active means well fitted rising curve with a large enough effect; inconclusive means small, poorly fitted or top-dose-only effect; inactive means no such curve, though single readings can be large or run the other way. Potency is read from the fitted curve at half-maximal effect. Only part of the results is shown; the hit share may differ from the screen's.

SMILES	NS1 inh	SARS PLP yeast
C#CCOCCOCCOCCNc1nc(N2CCN(C(=O)[C@H]([C@@H](C)CC)n3cc([C@@H](N)CO)nn3)CC2)nc(N2CCN(C(=O)[C@H]([C@@H](C)CC)n3cc([C@@H](N)CO)nn3)CC2)n1	-24%	-1%
CC(=O)Nc1cccc(NC(=O)CSc2nnnn2-c2ccc3c(c2)OCO3)c1	10%	1%
CCOc1ccc(C(=O)Oc2ccc(NC(C)=O)cc2)cc1	-1%	1%
CCc1ccc(-c2cc(C(=O)NCCCn3ccnc3)c3ccccc3n2)s1	-3%	-1%
C/C(=N/NC(=O)C1CCCC1)c1ccc(NC(=O)C(F)(F)F)cc1	8%	-4%
Cc1cc(C(=O)NCC23CC4CC(CC(C4)C2)C3)c(C)o1	-49%	1%
CC(C)(C)C(=O)NC1CCSC1=O (stereo not drawn)	0%	0%
Fc1ccccc1/C=N/Nc1nc(-c2ccccn2)nc2ccccc12	6%	-2%
CCN1C(=O)/C(=c2\s/c(=C3\Sc4ccccc4N3C)c(=O)n2C)N(C)C1=S	3%	-1%
O=C(CCl)c1ccc2c(c1)CCN2C(=O)C1CC1	-45%	21%
CC(=O)Nc1ccc(OS(=O)(=O)c2ccc(C(C)(C)C)cc2)cc1	3%	0%
Cc1ccc(C2NC(C(=O)O)CS2)cc1 (stereo not drawn)	0%	0%
CC(=O)Cc1nnn(-c2cc(C)on2)n1	-2%	0%
CCC(NC(=S)NC1CCCCC1)c1ccccc1 (stereo not drawn)	-67%	-2%
O=C1NC(=O)C(=C/C=C/c2coc3ccc(Br)cc3c2=O)C(=O)N1	-1%	2%
COc1cccc(OCc2nnc(-c3cccs3)o2)c1	-4%	-4%
COc1cc2c(cc1OC)C1O[C@](CCCCN3C(=O)c4ccccc4C3=O)(C2)OC2=C1C(=O)OC1(CCCCC1)C2	23%	-1%[6.58 µM]
COc1ccc2c(c1O)C(=O)c1ccccc1C2=O	-6%	17%
COc1ccc(CC(NC(C)=O)C(=O)NC2CCN(c3nnnn3-c3ccccc3)CC2)cc1OC (stereo not drawn)	1%	-2%
Cc1cc(C)nc(Nc2ncn[nH]2)n1	6%	1%

Entries of single compounds, looked up by structure. Screens in order: NS1 inh	SARS PLP yeast
Fc1ccccc1/C=N/Nc1nc(-c2ccccn2)nc2ccccc12 across the screens: 6%	-2%
COc1ccc2c(c1O)C(=O)c1ccccc1C2=O across the screens: -6%	17%

The results go on:
SMILES	NS1 inh	SARS PLP yeast
CCCCNc1n[n+](C)c(-c2cccc(C)c2)s1	-40%	-1%
N#CC(C#N)=C1NC(N)=C(C#N)C(c2ccccc2)=C1C#N	3%	0%
COCCCNC(=O)Cn1nnc(-c2ccc(NC(=O)c3cccnc3)cc2)n1	3%	2%
CCc1nc(SCC(=O)Nc2ccc(Br)cn2)n[nH]1	-7%	-5%
COc1ccc([C@]23Cc4cc(C#N)ccc4C(O2)c2c(cc(C)n(-c4ccccc4)c2=O)O3)cc1	25%	0%[6.58 µM]
CCN1CCN(c2ccc(S(=O)(=O)N3CCCCC3)cc2NC(=O)Cc2c(Cl)cccc2Cl)CC1	-12%	-3%
C=CCn1c(=O)/c(=C2/Sc3cc(OC)ccc3N2C)s/c1=C1\C(=O)N(CC)C(=S)N1C	-1%	-1%
Cc1[nH]nc(N)c1N=Nc1ccc(Br)cc1	-47%	-3%
O=C(CCNS(=O)(=O)c1ccccc1)N1CCN(C(c2ccccc2)c2ccccc2)CC1	-33%	-4%
N#Cc1cc(NC(=O)c2ccc(F)cc2)c(=O)n2c1[nH]c1ccccc12	0%	1%
Cc1ccnc(NS(=O)(=O)c2ccc(C(C)(C)C)cc2)c1	1%	0%
Cc1cc(C)nc(OC(=O)c2ccc(Cl)cc2Cl)n1	2%	0%
CC(C)(C)OC(=O)CN1C(=O)S/C(=C\c2ccc(-c3cccc(C(=O)O)c3)o2)C1=O	10%	-6%
Cc1ccc(C(C)NC(=S)NC2CCCCC2)cc1C (stereo not drawn)	-83%	-5%
Cc1cc(Oc2ccc(=O)n(C)n2)nc(=S)[nH]1	0%	0%
COc1cc2c(c(O)c1OC)-c1c(cc(OC)c(OC)c1O)[C@@H](OC(=O)c1ccccc1)[C@@](C)(O)[C@@H](C)[C@@H]2OC(C)=O	-5%	0%
O=C1N/C(=C\c2nc3ccccc3s2)c2ccccc21	-3%	8%
Cc1c(Cl)cn2c(=O)cc(CN3CCN(c4ccc(F)cc4)CC3)nc2c1Cl	3%	0%
Cc1cc2c(c(=O)o1)C1O[C@](c3ccsc3)(Cc3ccccc31)O2	?	4%[6.58 µM]
CCN(C(=O)c1cc2ccccc2o1)C12CC3CC(CC(C3)C1)C2	3%	5%
COc1cc(/C=C2/C(=O)N(c3ccc(Br)cc3)N=C2C)cc([N+](=O)[O-])c1O	5%	1%
Cc1nc(SCC(=O)NCc2ccco2)c2c(=O)n(C)c(=O)n(CC(C)C)c2n1	7%	0%
O=C(/C=C/c1cn(CC(O)CN2CCOCC2)c2ccccc12)c1cccs1 (stereo not drawn)	-2%	0%
Cc1ccc(NC(=O)OCc2cccs2)cc1	-14%	-17%
O=C(Nc1cccc(CCc2ccccn2)c1)c1ccc(Cl)cc1	-3%	-4%
Cc1cc(C)nc(/N=C(\N)Nc2ccc(S(=O)(=O)Nc3nc(C)cc(C)n3)cc2)n1	1%	-2%
CCN1C(=O)NC(=O)/C(=C\c2cn(CC(=O)O)c3ccccc23)C1=O	6%	2%
Cc1ccc(-c2nn(-c3ccccc3)cc2C(=O)O)o1	7%	0%
O=C(Cc1ccccc1[N+](=O)[O-])OCc1cccc([N+](=O)[O-])c1	-5%	1%
CNC(=S)N1CCC(NC(=O)c2ccco2)CC1	6%	0%
CN(C(=O)COc1ccc(Cl)cc1)c1nnc(C23CC4CC(CC(C4)C2)C3)s1	2%	1%
Cc1cc(Cl)ccc1OCC(=O)n1cc(C(=O)c2cc(Cl)ccc2O)cn1	-2%	1%
COc1ccc([C@]23Cc4ccccc4C(O2)C2=C(CC(C)(C)CC2=O)O3)cc1	-9%	2%[6.58 µM]
CCOc1cc(/C=C(\C#N)C(=O)Nc2ccccc2[N+](=O)[O-])ccc1OCc1cccc2ccccc12	1%	0%
C/C(CC(=O)Nc1ccc(F)cc1F)=N\NC(=O)C(=O)N1CCCCC1	-4%	-1%
COc1ccc(C(=O)CSc2nc3c(c(=O)n(C)c(=O)n3C)n2C)cc1	?	0%
CC(C)CN1CCN(C2CCN(C(C)C)CC2)C(CCO)C1 (stereo not drawn)	-2%	1%
CC(C)c1ccc(C(=O)NNC(=O)C2C3CCC(C3)C2C(=O)O)cc1 (stereo not drawn)	16%	0%
C/C=C/C(=O)N1CC2(CC(c3cccc(NC(=O)CCCCC)c3)=NO2)C[C@H]1C(N)=O (stereo partly drawn)	7%	1%
CC(C(=O)Nc1ccc(S(=O)(=O)N2CCCCC2)cc1)N1CCN(c2ccccn2)CC1 (stereo not drawn)	-1%	-1%
CCS(=O)(=O)Nc1cccc(-c2ccc3nnc(C)n3n2)c1	1%	-1%
FC(F)(F)c1cccc(NC(=S)NNC(=S)Nc2ccc(Cl)cc2)c1	-33%	-18%
O=[N+]([O-])c1ccc(C=Nc2ccc(Cl)c([N+](=O)[O-])c2)s1	-51%	-5%
CCCCn1c(=O)c(C(=O)N/N=C/c2ccc(F)cc2)c(O)c2ccccc21	8%	-2%
CN(C(=O)CSc1nc2c(cnn2-c2ccccc2)c(=O)[nH]1)C1CCS(=O)(=O)C1 (stereo not drawn)	2%	0%
C#CCOCCOCCOCCNc1nc(N2CCN(C(=O)[C@H]([C@@H](C)CC)n3cc([C@@H](N)Cc4ccc(O)cc4)nn3)CC2)nc(N2CCN(C(=O)[C@H](Cc3cc4ccccc4[nH]3)n3cc([C@@H](N)C(C)CC)nn3)CC2)n1 (stereo partly drawn)	0%	0%
Cc1cc2c(c(=O)n1Cc1ccccc1)C1O[C@](c3ccsc3)(Cc3ccccc31)O2	-35%	-5%[6.58 µM]
C#CCOCCOCCOCCNc1nc(N2CCN(C(=O)C([C@@H](C)CC)n3cc(C(N)CO)nn3)CC2)nc(N2CCN(C(=O)[C@H](CCC(=O)O)n3cc(C(N)Cc4ccc(O)cc4)nn3)CC2)n1 (stereo partly drawn)	2%	-3%
CCCCOc1ccc(C2C(C(=O)c3ccc(C)o3)=C(O)C(=O)N2Cc2ccco2)cc1 (stereo not drawn)	?	-3%
C[n+]1nc(Nc2cccc(F)c2)sc1-c1ccc(C(=O)O)cc1	-5%	-2%
COc1ccc([C@]23Cc4ccccc4C(O2)C2=C(CCCC2=O)O3)cc1	0%	-8%[6.58 µM]
Cc1cc(C)c(OCC(=O)Nc2ccc(N3CCOCC3)cc2)c(Br)c1	9%	0%
COc1ccc2c3c(c(=O)oc2c1)C1O[C@](CCCCN2C(=O)c4ccccc4C2=O)(Cc2cc(OC)c(OC)cc21)O3	?	10%[6.58 µM]
COc1cc(-c2ccc(NC(=O)NC3CC3)c(OC)c2)ccc1NC(=O)NC1CC1	5%	-1%
O=C1C2N=NN(CC(=O)N3N=C(c4ccccc4)CC3c3ccc([N+](=O)[O-])cc3)C2C(=O)N1c1ccccc1 (stereo not drawn)	14%	-1%
Cc1cc(C)cc(Oc2ccccc2CO)c1	-4%	0%
Cn1c(CNC(=O)c2ccccc2F)nnc1SCc1nc2ccccc2c(=O)[nH]1	3%	1%
Oc1ccc(/C=N/N(c2ccccc2)c2ccccc2)c(O)c1O	10%	1%
COc1ccc(NC(=O)c2ccc(Cl)c(NC(=O)c3ccncc3)c2)cc1	1%	-2%
C/C(=N\NC(=O)C1CC1)c1cccc(NC(=O)c2cccc(Cl)c2)c1	4%	0%

19 of the compounds above, with two lines to a compound.
Order of values – NS1 inh | SARS PLP yeast
FC(F)(F)c1cccc(NC(=S)NNC(=S)Nc2ccc(Cl)cc2)c1
  -33% | -18%
O=[N+]([O-])c1ccc(C=Nc2ccc(Cl)c([N+](=O)[O-])c2)s1
  -51% | -5%
CCCCn1c(=O)c(C(=O)N/N=C/c2ccc(F)cc2)c(O)c2ccccc21
  8% | -2%
CN(C(=O)CSc1nc2c(cnn2-c2ccccc2)c(=O)[nH]1)C1CCS(=O)(=O)C1 (stereo not drawn)
  2% | 0%
C#CCOCCOCCOCCNc1nc(N2CCN(C(=O)[C@H]([C@@H](C)CC)n3cc([C@@H](N)Cc4ccc(O)cc4)nn3)CC2)nc(N2CCN(C(=O)[C@H](Cc3cc4ccccc4[nH]3)n3cc([C@@H](N)C(C)CC)nn3)CC2)n1 (stereo partly drawn)
  0% | 0%
Cc1cc2c(c(=O)n1Cc1ccccc1)C1O[C@](c3ccsc3)(Cc3ccccc31)O2
  -35% | -5%[6.58 µM]
C#CCOCCOCCOCCNc1nc(N2CCN(C(=O)C([C@@H](C)CC)n3cc(C(N)CO)nn3)CC2)nc(N2CCN(C(=O)[C@H](CCC(=O)O)n3cc(C(N)Cc4ccc(O)cc4)nn3)CC2)n1 (stereo partly drawn)
  2% | -3%
CCCCOc1ccc(C2C(C(=O)c3ccc(C)o3)=C(O)C(=O)N2Cc2ccco2)cc1 (stereo not drawn)
  ? | -3%
C[n+]1nc(Nc2cccc(F)c2)sc1-c1ccc(C(=O)O)cc1
  -5% | -2%
COc1ccc([C@]23Cc4ccccc4C(O2)C2=C(CCCC2=O)O3)cc1
  0% | -8%[6.58 µM]
Cc1cc(C)c(OCC(=O)Nc2ccc(N3CCOCC3)cc2)c(Br)c1
  9% | 0%
COc1ccc2c3c(c(=O)oc2c1)C1O[C@](CCCCN2C(=O)c4ccccc4C2=O)(Cc2cc(OC)c(OC)cc21)O3
  ? | 10%[6.58 µM]
COc1cc(-c2ccc(NC(=O)NC3CC3)c(OC)c2)ccc1NC(=O)NC1CC1
  5% | -1%
O=C1C2N=NN(CC(=O)N3N=C(c4ccccc4)CC3c3ccc([N+](=O)[O-])cc3)C2C(=O)N1c1ccccc1 (stereo not drawn)
  14% | -1%
Cc1cc(C)cc(Oc2ccccc2CO)c1
  -4% | 0%
Cn1c(CNC(=O)c2ccccc2F)nnc1SCc1nc2ccccc2c(=O)[nH]1
  3% | 1%
Oc1ccc(/C=N/N(c2ccccc2)c2ccccc2)c(O)c1O
  10% | 1%
COc1ccc(NC(=O)c2ccc(Cl)c(NC(=O)c3ccncc3)c2)cc1
  1% | -2%
C/C(=N\NC(=O)C1CC1)c1cccc(NC(=O)c2cccc(Cl)c2)c1
  4% | 0%

(more compounds)
SMILES	NS1 inh	SARS PLP yeast
CCn1c(=O)c2cc(C(=O)N3CCCC3)sc2c2ccccc21	-40%	2%
COc1ccccc1N1CCN(C(=O)c2ccc3c(c2)NC(=O)C(CSCc2ccccc2C)N3)CC1 (stereo not drawn)	21%	-18%
CCN1C(=S)N[C@@H](c2cccc(C(F)(F)F)c2)C(C(=O)OC)=C1C	13%	5%
O=C1CCCC2=C1C1O[C@](CCCCN3C(=O)c4ccccc4C3=O)(Cc3c1ccc1ccccc31)O2	?	1%[6.58 µM]
O=C(NC(=S)Nc1ccccc1F)C1CCCCC1	-9%	?
O=P(O)(CN1CCCCCC1)C1Cc2ccccc2C1	4%	0%
